# Mtb growth: M. tuberculosis H37Rv growth inhibitors, H37Rv strain (AID 1626). 0.95% of 220,000 active. inhibition, % at 10 µM; hits with a dose series show IC50 in µM. M. tuberculosis H37Rv growth inhibition; higher % means a stronger effect;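 active = confirmed in a dose series; inconclusive = inhibition above 80% but not taken into the dose series; inactive = below 80% or under 30% at every dose of the series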;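 also: bacteria incubated seven days before Alamar blue readout; 0% = bacteria only wells and 100% = bacteria with antibiotic wells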
# RecA splice inh: Mtb RecA intein splicing inhibition. P9WHJ3. cell-free RecA intein splicing, fluorescence. inhibition, %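 (about 9 µM by stock and volumes)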. 0.75% of 290,000 active. AID 2221; in the data active = inhibition above about 30%; inconclusive = no clear call, values can overlap the other calls;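 also: 0% = vehicle wells and 100% = reference inhibitor control wells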
# Target sequence (P9WHJ3 whole entry, looked up, canonical isoform): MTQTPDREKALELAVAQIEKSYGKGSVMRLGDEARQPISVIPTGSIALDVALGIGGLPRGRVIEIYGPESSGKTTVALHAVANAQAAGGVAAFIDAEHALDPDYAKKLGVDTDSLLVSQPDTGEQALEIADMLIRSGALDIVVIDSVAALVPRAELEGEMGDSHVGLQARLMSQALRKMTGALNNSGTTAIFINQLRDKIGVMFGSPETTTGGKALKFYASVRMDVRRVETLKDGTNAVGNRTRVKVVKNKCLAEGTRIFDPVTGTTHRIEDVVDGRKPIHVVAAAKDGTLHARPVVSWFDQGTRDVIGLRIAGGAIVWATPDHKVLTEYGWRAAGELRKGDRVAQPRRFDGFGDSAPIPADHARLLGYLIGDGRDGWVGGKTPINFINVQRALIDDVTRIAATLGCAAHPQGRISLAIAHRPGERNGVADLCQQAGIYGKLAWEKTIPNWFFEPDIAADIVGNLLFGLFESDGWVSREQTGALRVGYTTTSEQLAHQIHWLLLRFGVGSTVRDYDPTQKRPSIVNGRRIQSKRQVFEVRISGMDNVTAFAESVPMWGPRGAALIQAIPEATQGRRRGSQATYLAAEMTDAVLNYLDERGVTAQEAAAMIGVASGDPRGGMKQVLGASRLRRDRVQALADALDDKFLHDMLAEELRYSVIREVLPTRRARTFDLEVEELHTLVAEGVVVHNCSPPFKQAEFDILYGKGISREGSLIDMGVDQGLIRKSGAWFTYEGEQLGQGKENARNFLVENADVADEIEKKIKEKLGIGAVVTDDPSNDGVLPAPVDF
# Mtb bLac sens: beta-lactam sensitization of Mtb H37Rv. M. tuberculosis H37Rv growth with meropenem, percent inhibition; hits of this screen are not shown here. inhibition, % at 25 µM. 0.27% of 330,000 active;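 active = about 74% or more and at least 40 points above the plate without the antibiotic, then above 30% in a dose series; inconclusive = first-round hits that could not be retested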;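 also: growth measured after seven days incubation then overnight dye step; 0% = bacteria only wells and 100% = bacteria with antibiotic; twin plates without the antibiotic show which effects depend on it; some results filed as inactive read as strong as hits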
# Arbovirus anti: antivirals against arbovirus infection | arbovirus infection cell-based antiviral screen | inhibition, % at 10 µM | 0.37% of 200,000 active | AID 1251;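 active = inhibition from about 30%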;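 also: bluetongue infection of BSR cells; cell survival read as ATP light after 72 h; 0% = infected wells without compound and 100% = uninfected wells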
# YopH inh: YopH (Yersinia) phosphatase inhibition; fluorescence Ex485/Em525; inhibition, %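 (about 10 µM by stock and volumes)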; 0.16% of 140,000 active;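 active = inhibition of 50% or more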;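 also: controls were vehicle for no effect and minimum signal wells for full effect; inactives centre near -20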
# Arbovirus anti repeat: recorded beside Arbovirus anti, whose call it bears; inhibition, %; measured here: 10K subset replicate screen; many hits read low in the repeat;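 first of two repeat runs on a subset; 0% = infected and 100% = uninfected wells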
# Active calls of the source: *; ? = inconclusive; . = no result given. Only part of the results is shown; count on the stated rates, not on these rows.
SMILES,Mtb growth,RecA splice inh,Mtb bLac sens,Arbovirus anti,YopH inh,others
CCc1cccc(NC(=O)CCNS(=O)(=O)c2cccc3nonc23)c1,7%,.,2,23,.,
COc1cc(Cl)cc(C2NC(=S)NC(c3ccccc3)=C2C(C)=O)c1OCC(=O)O (centres undefined),0%,0.6,-6,0,.,
COCCOCCOCCC(=O)NC1CC2CCC1(C)C2(C)C (centres undefined),8%,1.4,-3,-4,-52,
CC(C)OC(=O)c1c(NC(=O)c2ccco2)sc2c1CCCC2,-2%,.,-7,-1,-65,
CCOc1ccc2nc(NC(=O)Cn3[nH]c(=O)c4ccccc4c3=O)sc2c1,38%,0.4,88,.,.,
COc1ccc(Br)cc1[C@H]1[C@@H]2C=CCC[C@@]2(C)C(=O)N1Cc1ccccc1,1%,32*,3,.,.,
CCC(CO)Nc1ncnc2onc(-c3ccc(F)cc3)c12 (centres undefined),.,1.2,-7,.,.,
CCN1CCN(Cc2ccc(NC(=O)c3ccc(C)c(NC(=O)c4cc(-c5ccc(Br)cc5)n[nH]4)c3)cc2C(F)(F)F)CC1,2.2µM*,17,-2,.,.,
COc1ccc(C(=O)N(Cc2ccc(N(C)C)cc2)C2CCS(=O)(=O)C2)cc1 (centres undefined),9%,.,-5,-6,-16,
CC/C(=N/NC(=O)c1ccccc1)c1ccc(OCCN2CCOCC2)cc1,0%,0.8,7,10,-5,
Cc1coc2c(O)cc3c(c12)OC1(N2CCCCC2)C(=O)NCCCC31 (centres undefined),-7%,.,-7,-7,73*,
COc1ccc(NC(=S)Nc2ccc(OCc3ccccc3)cc2)c(OC)c1,60%,3.6,-4,3,-14,
O=C(Nc1cccc(F)c1)Nc1ccccn1,3%,3.7,-21,0,-44,Arbovirus anti repeat=-9
Cc1nn(C)c(C)c1Sc1ccc(Br)cc1,-3%,3.1,-11,17,-21,
Cc1noc(C)c1COC(=O)[C@@H](NC(=O)c1ccccc1Cl)C(C)C,3%,1.4,-5,4,.,
CCCn1c(SCC(=O)O)nc2ccccc21,-2%,-0.1,-5,8,-18,
CC(Sc1nnc(-c2cccnc2)n1-c1ccccc1F)C(=O)N1CCCc2ccccc21 (centres undefined),5%,4.3,2,-3,-16,
COc1cccc(C(=O)NCC(C)(C)SCc2ccc(F)cc2)c1,.,5.8,1,.,.,
CCN(CC(=O)Nc1c(F)cccc1F)C(=O)c1ccc(S(=O)(=O)N2CCCC2)cc1,.,-2.8,1,.,.,
Cc1cc(C)nc(OC(=O)c2ccc(Cl)cc2Cl)n1,3%,5.6,-9,1,.,
COc1cc(OC)cc(C(=O)NCC(=O)OCc2nc3ccccc3s2)c1,-1%,.,2,0,.,
COc1ccc(Oc2c(Cl)cnn(-c3ccc(F)cc3)c2=O)cc1,9%,4.9,-3,-39,-2,
CN(C)S(=O)(=O)N1CCN(Cc2ccccc2)CC1,1%,1.8,-1,-1,6,
CC(=O)N(Cc1ccccn1)Cc1ccco1,3%,0.8,-10,.,.,
O=C(Nc1cc(S(=O)(=O)N2CCOCC2)ccc1N1CCCC1)c1cc(=O)[nH]c2ccccc12,-10%,3.3,-7,.,.,

# A draw from above in order of molar mass, ascending.
SMILES,Mtb growth,RecA splice inh,Mtb bLac sens,Arbovirus anti,YopH inh,others
CC(=O)N(Cc1ccccn1)Cc1ccco1,3%,0.8,-10,.,.,
CN(C)S(=O)(=O)N1CCN(Cc2ccccc2)CC1,1%,1.8,-1,-1,6,
Cc1nn(C)c(C)c1Sc1ccc(Br)cc1,-3%,3.1,-11,17,-21,
COCCOCCOCCC(=O)NC1CC2CCC1(C)C2(C)C (centres undefined),8%,1.4,-3,-4,-52,
CC(C)OC(=O)c1c(NC(=O)c2ccco2)sc2c1CCCC2,-2%,.,-7,-1,-65,
Cc1noc(C)c1COC(=O)[C@@H](NC(=O)c1ccccc1Cl)C(C)C,3%,1.4,-5,4,.,
COc1cc(OC)cc(C(=O)NCC(=O)OCc2nc3ccccc3s2)c1,-1%,.,2,0,.,

# The list goes on.
SMILES,Mtb growth,RecA splice inh,Mtb bLac sens,Arbovirus anti,YopH inh,others
CCOC(=O)c1ccc(NC(=O)c2cc3c(s2)CCC3)cc1,4.7µM*,-7.1,100,.,.,
O=c1[nH]c(NCCO)nc2ncn(Cc3ccccc3)c12,-9%,-3.0,1,2,20,
O=C(Nc1ccc(C(F)(F)F)cc1)c1cccnc1N1CCOCC1,-3%,0.2,-7,-1,-17,
CCOC(=O)N1CCN(Cc2ccccn2)CC1,3%,-5.0,-14,11,4,
CC(=O)c1c(C)nc2ccc(Br)cc2c1-c1ccccc1,10%,-1.5,-1,4,.,
COc1ccc(N2C(=O)/C(=C/c3ccc(C)o3)C(=O)NC2=S)c(OC)c1,.,-1.2,7,.,.,
COc1ccccc1C1c2ccc3ccccc3c2Oc2ncn(CCN(C)C)c(=N)c21 (centres undefined),.,5.1,?,.,.,
COc1cccc(-c2c(C(=O)N/N=C(\C)c3ccncc3)nnn2-c2nonc2N)c1,.,0.9,2,.,.,
CCC(c1nc2ccccc2c(=O)n1CCN1CCOCC1)N1C(=O)c2ccccc2C1=O (centres undefined),-4%,0.2,-6,3,13,
O=C(c1ccc2c3c(cccc13)CC2)C1CCCN(C(=O)c2ccc[n+]([O-])c2)C1 (centres undefined),-5%,-1.1,1,.,.,
COc1cccc(CN(CC(=O)NCc2ccc(F)cc2)C(=O)c2ccco2)c1,.,-0.8,-3,.,.,
O=C(CSc1c2c(nc3cc(Cl)ccc13)CCCC2)NCCCN1CCOCC1,12%,27,0,13,.,
COc1ccc(/C=C/c2cc(C(F)(F)F)on2)cc1,3%,1.2,-3,.,.,
Cc1cccc(N(CC(=O)Nc2ccccc2-c2ccccc2)S(=O)(=O)c2ccccc2)c1C,20%,12,1,-10,-24,
CCCC(c1nnnn1Cc1ccccc1)N1CCN(c2ccccc2OC)CC1 (centres undefined),-3%,2.8,5,2,-29,
COc1ccc(CCn2c(C)cc(C(=O)CSc3nnnn3-c3ccccc3)c2C)cc1,-19%,0.3,-5,-11,-1,
CNc1nc(Cl)nc(NC(C)(C)C)n1,-4%,-1.3,2,-1,-39,
COc1ccc(S(=O)(=O)NCc2cccnc2)cc1C(=O)Nc1ccccc1,.,-5.4,1,.,.,
CCCCn1c(SCC(=O)Nc2cc(C)on2)nnc1-c1cccnc1,-8%,0.9,?,2,-3,
COc1cc(C(=O)OCC(=O)N2CCCCC2C)cc(NC(=O)c2cccs2)c1OC (centres undefined),3%,0.7,-1,-4,.,
O=C(O)/C=C/C(=O)Nc1ccccc1-c1ccccc1,3%,4.6,42,4,-32,
c1ccc(N2CCN(c3nc4ccccc4[nH]3)CC2)nc1,-1%,0.9,4,17,.,
NS(=O)(=O)c1ccc(NC(=S)NCc2ccc3c(c2)OCO3)cc1,-1%,12,-2,-5,.,
Cc1nnc(SCc2nnc(-c3cccs3)o2)n1Cc1ccccc1,3%,-0.2,-4,10,.,
CCc1c(O)nc(SCc2ccc(F)cc2)[nH]c1=O,.,1.5,-4,.,.,

# Retrieved one by one from the list above:
SMILES,Mtb growth,RecA splice inh,Mtb bLac sens,Arbovirus anti,YopH inh,others
O=C(c1ccc2c3c(cccc13)CC2)C1CCCN(C(=O)c2ccc[n+]([O-])c2)C1 (centres undefined),-5%,-1.1,1,.,.,
O=c1[nH]c(NCCO)nc2ncn(Cc3ccccc3)c12,-9%,-3.0,1,2,20,
Cc1cccc(N(CC(=O)Nc2ccccc2-c2ccccc2)S(=O)(=O)c2ccccc2)c1C,20%,12,1,-10,-24,

# Next compounds follow.
SMILES,Mtb growth,RecA splice inh,Mtb bLac sens,Arbovirus anti,YopH inh,others
O=C(COc1ccccc1)NCC(=O)N1CCCC1,.,0.9,9,.,.,
Cc1c(NP(=O)(c2ccc(Br)cc2)c2ccc(Br)cc2)c(=O)n(-c2ccccc2)n1C,-1%,1.0,-3,3,.,
O=C(CC1C(=O)NCCN1C(=O)Nc1ccc(C(F)(F)F)cc1)Nc1ccc(F)cc1 (centres undefined),15%,-3.8,0,.,.,
CCOc1ccc(S(=O)(=O)N/N=C\c2ccc3c(c2)OCO3)cc1,.,0.4,10,.,.,
CCN(CC)c1ccc(S(=O)(=O)N2CCOCC2)cc1NC(=O)CSc1n[nH]c(N)n1,-7%,0.5,0,.,.,
O=C1CCCc2c1nc(-c1cccc(Cl)c1)n2O,-9%,0.1,-15,2,-16,
CC1Sc2ccc(S(=O)(=O)CCC(=O)NC(C)c3ccccc3)cc2NC1=O (centres undefined),.,0.6,-5,.,.,
Cn1nc(-c2ccc(Cl)cc2)c2cc(C(=O)NCCN3CCOCC3)sc21,0%,-7.7,14,0,.,Arbovirus anti repeat=-6
Cc1nc2sccn2c(=O)c1S(=O)(=O)NCC(C)c1ccccc1 (centres undefined),.,0.1,0,.,.,
CCCCNC(=O)C1CCCN(S(=O)(=O)c2c(C)noc2/C=C/c2cccs2)C1 (centres undefined),4%,-1.4,11,.,.,
CCn1cc(C(=O)N[C@@H](CCSC)C(=O)NCCCO)c(=O)c2cc3c(cc21)OCO3,.,1.3,1,.,.,
COC(=O)C1=C(C)N=c2s/c(=C3\C(=O)Nc4ccccc43)c(=O)n2C1c1ccccc1 (centres undefined),.,-0.4,.,-6,-26,Arbovirus anti repeat=9
COc1ccc(-c2c(C#N)c(SCC(=O)Nc3ccccc3)nc3c2CCCC3)cc1,-3%,.,2,.,-16,
COc1ccc(-c2[nH]ncc2CN2CCCN(C(=O)c3ccco3)CC2)cc1F,-5%,-0.2,-14,.,.,
Cc1occc1C(=O)NC1CCCc2ccccc21 (centres undefined),8%,-2.8,3,4,-5,
COc1cc2c(=O)n(CC3CCCO3)c(=O)n(CC(=O)Nc3ccc(F)cc3F)c2cc1OC (centres undefined),.,-1.0,0,16,-29,
CCCC(=O)N(CCc1ccc(OC)cc1)Cc1nc2ccccc2c(=O)[nH]1,-2%,-5.7,1,3,-15,
Cc1ccc(Nc2ncnc3nc[nH]c23)cc1Cl,12%,-1.5,4,0,-62,Arbovirus anti repeat=0
COC(=O)CCC(=O)NC(=S)Nc1ccc(S(=O)(=O)Nc2cc(C)on2)cc1,.,-2.1,-10,.,.,
Cc1ccc(NC(=O)CSc2nc3c(c(=O)n(C)c(=O)n3C)n2C)cc1,.,-1.4,3,.,.,
CC[C@@]12C(=O)N(c3cccc(Br)c3)C(=O)N1[C@H](c1ccc(F)cc1)[C@@H]1C(=O)N(C3CCCCC3)C(=O)[C@@H]12,.,2.5,-9,.,.,
CC(OC(=O)Cn1[nH]c(=O)c2ccccc2c1=O)C(=O)Nc1ccccc1[N+](=O)[O-] (centres undefined),.,-2.2,-5,.,.,
Cc1nc2scc(C)n2c(=O)c1S(=O)(=O)N1CCN(c2cccc(C(F)(F)F)c2)CC1,.,8.5,-8,.,.,
COc1cccc(N2CCN(C(=O)CN3C(=O)NC(C)(c4ccc5ccccc5c4)C3=O)CC2)c1 (centres undefined),.,1.2,-1,.,.,
COc1ccccc1CNC(=O)c1ccc(Br)o1,-10%,2.0,-4,-11,-12,

# (listing goes on)
SMILES,Mtb growth,RecA splice inh,Mtb bLac sens,Arbovirus anti,YopH inh,others
O=c1ccccn1Cc1ccccc1F,-6%,-2.4,-6,2,-20,
COc1cccc(N2CCN(C(=O)CN3C(=O)NC4(CCCC4)C3=O)CC2)c1,.,2.7,2,.,.,
C#CC1CCCCC1NC(=O)Nc1cnccc1C(F)(F)F (centres undefined),-1%,-0.5,-2,.,.,
CCOc1cc(/C=N/n2cnnc2)cc(Br)c1O,1%,-2.5,-6,6,-66,
Cc1oc(=O)c(NC(=O)c2ccccc2)cc1C(=O)c1ccccc1,6%,10,50,-11,33,
Cn1c(=O)[nH]c(=O)c2c1nc(N1CCOCC1)n2CCSc1nnnn1-c1ccccc1,0%,3.1,-6,.,.,
COc1ccc(CCN(C)C(=O)c2c(C)nn(CC(C)C)c2Cl)cc1OC,.,1.2,-2,.,.,
COc1ccc(C(=O)Nc2ccnn2C2CCN(Cc3ccn[nH]3)CC2)cc1,.,1.7,-6,.,.,
O=C(CNc1cccc(C(F)(F)F)c1)N/N=C/C1CCCCC1,-16%,1.2,-3,-2,-13,
COc1ccc(-c2noc(CNC(=O)Nc3ccc(F)cc3)n2)cc1,11%,-0.7,-4,-10,.,
Cc1cccc(NC(=O)CSc2nnnn2-c2cccnc2)c1,-7%,-1.3,6,10,-32,
O=C(Nc1cccnc1N1CCOCC1)c1ccco1,8%,-0.2,-10,2,-11,
CC(=NCCN1CCOCC1)c1c(O)n(-c2ccccc2C)c(=O)[nH]c1=O,-3%,-1.3,-2,4,7,
CC1=Nc2ccccc2/C1=C/c1sc(=N)n(-c2nccs2)c1O,<0.2µM*,-4.9,94,-30,-94,
COC(=O)Cc1sc(-c2ccccn2)nc1-c1ccccc1,-2%,1.1,14,-1,.,
CC(=O)NC(Nc1c(C)n(C)n(-c2ccccc2)c1=O)C(Cl)(Cl)Cl (centres undefined),-3%,-3.9,0,5,.,

# Screens from PubChem.
